AID504770: growth inhibitors of E. coli YBA685 in a screen for V. cholerae RctB (chromosome II replication) inhibitors; E. coli YBA685 rctB-dependent plasmid, OD600 growth, 3 h; hits give low values; 0.27% of 130,000 active; z-score (concentration not given with the values); AID 504770;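 active = z-score under -2 on both plates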;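 also: wells of about 30 µL received 100 nL stock; score is relative to mean and SD of the test wells; the first replicate is given; strong numbers were not always called active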
Ba CapD inh: CapD enzyme inhibition. 0.23% of 140,000 active. AID 492967. purified CapD enzyme, fluorescence intensity read-out; hits give low values; some hits fall short of the stated cut. z-score (concentration not given with the values);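 active = z-score under -4 in either of two replicates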;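 also: stock transfer was 100 nL into about 40 µL; score is relative to mean and spread of the plate; one replicate is shown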
Numbers without * were called inactive; i = inactive; . = not tested or not shown.

| mol | AID504770 | Ba CapD inh |
| --- | --- | --- |
| COc1cccc(C2C(C#N)=C(N)OC3=C2C(=O)CC(C)(C)C3)c1OC(=O)N1CCOCC1 (stereo unspecified) | . | -0.17 |
| CNC1(c2ccccc2Cl)CCCCC1=O (stereo unspecified) | . | -0.95 |
| CCOC(=O)c1ccc(NC(=O)C2Oc3ccccc3OC2C)cc1 (stereo unspecified) | . | -0.29 |
| CC(=O)Oc1ccccc1-n1c(C)nc(=O)c(-c2ccccc2)c1C | -4.5* | 0.19 |
| NC(=S)NC1CC2CC1C1C=CCC21 (stereo unspecified) | 1.2 | 0.33 |
| CNC(=O)NC(=O)C(C)Sc1nc2ccc(C)cc2[nH]1 (stereo unspecified) | 0 | . |
| Clc1ccc(C(c2ccccc2Cl)C(Cl)Cl)cc1 (stereo unspecified) | -0.4 | -1.2 |
| COc1ccccc1/C=C/C(=O)Nc1nc(N)n(-c2ccccc2)n1 | -0.5 | 80 |
| Cc1c(C(c2cc(Cl)cc([N+](=O)[O-])c2O)c2c(C)n(C)n(-c3ccccc3)c2=O)c(=O)n(-c2ccccc2)n1C | . | -0.41 |
| O=C(NCc1ccco1)c1ccc2c(c1)OCCCO2 | -0.45 | -1.2 |
| O=C(N/N=C/c1cc2ccccc2o1)c1ccc(OC(F)(F)F)cc1 | . | 0.7 |
| COc1ccc(Cn2cccc2C2=NCCO2)cc1 | -0.05 | -0.68 |
| Cc1ccc(N2CCN(c3ccc(C)cc3)C2c2ccc(Br)cc2)cc1 | . | -0.27 |
| COc1ccc(-c2noc(CN(C)C(=O)N3c4ccccc4Sc4ccccc43)n2)cc1OC | 0.95 | . |
| CCOc1ccc2ccccc2c1C=Nc1ccccc1 | -0.4 | -0.82 |
| CCn1c(SCC(=O)NCc2ccccc2)nc2c([nH]c3ccccc32)c1=O | 1.2 | . |
| O=C(NC(=O)c1csc(-c2ccc(C(F)(F)F)cc2Cl)n1)Nc1ccc(F)cc1 | -0.4 | 0.32 |
| COc1cc(OC)nc(CSc2ncc(C(=O)N3CCN(C(c4ccccc4)c4ccccc4)CC3)n2C)n1 | . | -0.28 |
| Cc1cc(C)nc(N2CC(=O)N(CCOc3ccc(Br)cc3)C2=O)n1 | -0.4 | 6.8 |
| Cc1ccsc1C(=O)OCC(=O)c1cc2ccccc2o1 | -0.5 | . |
| CSc1nc(Sc2ccccc2Cl)c2cnn(-c3ccccc3)c2n1 | . | -0.32 |
| CC(=O)Oc1ccc2cc(-c3nc4ccccc4s3)c(=O)oc2c1 | -0.45 | i |
| Cc1noc(/C=C/N2CCOCC2)c1S(=O)(=O)N1CCN(c2ccc(F)cc2)CC1 | -0.15 | -3.5 |
| O=C(Nc1ccccc1)O/N=C1\CCCCC1c1ccc([N+](=O)[O-])cc1[N+](=O)[O-] (stereo unspecified) | . | -0.44 |
| COC(=O)c1ccn(-c2nc(-c3cccs3)cc(C(F)(F)F)n2)n1 | 0.3 | 88 |
| O=c1[nH]cnc2cccc(F)c12 | -0.85 | 1.1 |
| CCOC(=O)N1CCN(C(=O)CN(C)S(=O)(=O)c2ccc3c(c2)c(=O)n(C)c(=O)n3C)CC1 | -0.5 | 1 |
| C=CCC(C#Cc1ccccc1)N(C)C (stereo unspecified) | -1.8 | . |
| Cc1ccc2c(=O)cc(-c3ccc(F)cc3)oc2c1 | -0.05 | -0.21 |
| Cc1ccc(S(=O)(=O)N(C)c2ccc(OCC(=O)Nc3ccc(N4CCN(C)CC4)cc3C)cc2)cc1 | 1.2 | . |
| C#Cc1cccc(NC(=O)NC(=O)c2c(F)cccc2F)c1 | . | 0.4 |
| Cc1nc(C)c(CCNC(=O)c2cccs2)s1 | 0.2 | . |
| COc1ccc(CC(=O)N2CCC3(CC2)N=C(c2ccc(C)cc2)C(=O)N3)cc1OC | 0.05 | 0.06 |
| CP1(=O)COc2ccccc2OC1 | 0.4 | . |
| C#CC1(O)c2ccccc2CCc2ccccc21 | 0.05 | -0.45 |
| O=C(NCCc1c[nH]c2ccc(Cl)cc12)OCc1cc(C(F)(F)F)ccc1F | . | -0.01 |
| CNC(=S)NNC(=O)c1cc(N(C)C)nc(N(C)C)n1 | . | 0.41 |
| O=C(c1cccc(Br)c1)N1CCN(c2cnn(-c3ccccc3)c(=O)c2Cl)CC1 | -0.8 | -0.43 |
| CN(C)Cc1ccc(CN)cc1 | -0.15 | . |
| O=C(Nc1ccc(F)cc1F)C(Cc1ccccc1)NS(=O)(=O)c1cccc2cccnc12 (stereo unspecified) | 0.3 | -0.25 |
| Cn1c(=O)c2c(nc(SCC(=O)Nc3ccccc3F)n2Cc2ccccc2)n(C)c1=O | -0.15 | -0.11 |
| CCc1c(CN2CCN(Cc3ccccc3)CC2)csc1C | -0.75 | 0.46 |
| COc1cc2c(cc1OC)C(C)N(c1ncnc3onc(C)c13)CC2 (stereo unspecified) | -0.7 | 0.65 |
| CCOc1ccccc1C1C2=C(CC(C)(C)CC2=O)Nc2ccccc2N1C(=O)c1ccccc1 (stereo unspecified) | . | 0.55 |
| O=C(NCCCN1CCCC1=O)Nc1cccc(C(F)(F)F)c1 | -0.6 | . |
| N#Cc1ccc(C23CC4CC(CC(C4)C2)C3)nc1SCCN1CCCCC1 | -0.55 | 14 |
| NS(=O)(=O)c1ccc(CNC(=O)OCCCCCc2ccccc2)cc1 | . | -0.32 |
| Cc1ccc2oc3c(c(=O)c2c1)C(c1cccs1)N(CCN(C)C)C3=O (stereo unspecified) | -0.25 | . |
| CCOC(=O)/C(=N\O)C1=NC(C)(C)Cc2ccccc21 | 0.7 | 0.2 |
| O=C(O)c1cc(-c2cccs2)nc2ccc(Br)cc12 | -0.7 | 49 |

(list continues)
| mol | AID504770 | Ba CapD inh |
| --- | --- | --- |
| Cc1nnc(SCC(=O)NCC(F)(F)F)n1N | -0.25 | . |
| COc1cc(C2C3=C(CC(C)(C)CC3=O)Nc3ccccc3N2C(=O)c2ccccc2)cc(OC)c1OC (stereo unspecified) | . | -0.34 |
| CCOc1ccc(NC(=O)CC2C(=O)NCCN2C(=O)Nc2ccccc2)cc1 (stereo unspecified) | 1.3 | 0.12 |
| Cc1c(C#N)c(-n2cccc2)n(CC2CC2)c1C | 2 | -0.91 |
| COC(=O)c1c(C)oc2ccc(O)c(CN3CCCCC3)c12 | -0.3 | 0.29 |
| Cc1cccc(NC(=O)c2c(NC(=O)c3ccccc3)sc3c2CCCCC3)c1 | . | 4.2 |
| O=C(Nc1cc(Cl)ccc1Cl)c1cccn(OCc2ccc(F)cc2)c1=O | -0.2 | 0.15 |
| CC(=O)N1CCN(S(=O)(=O)c2cccc(C(=O)OCC(=O)c3cc(C)n(-c4ccc5c(c4)OCO5)c3C)c2)CC1 | 0.1 | . |
| COC(=O)c1ccccc1NC(=O)CSc1nc2ccccc2s1 | 0.1 | 1.1 |
| N#Cc1ccc(OCC(=O)Nc2ccc(-c3nnc4n3CCCCC4)cc2)cc1 | 0.75 | . |
| CCC1(c2ccccc2)NC(=S)N(C)N1 (stereo unspecified) | 2.5 | -0.78 |
| CCOc1cc(-c2nc3sc4c(c3c(=O)[nH]2)CCCC4)cc(Br)c1OCc1ccccc1 | . | -0.15 |
| COc1cc(OC)nc(CSCC(=O)N2CCN(Cc3ccccc3)CC2)n1 | . | -0.48 |
| CCC(C)Nc1ncnc2cc(OC)c(OC)cc12 (stereo unspecified) | 1.5 | 10 |
| CCOC(=O)N1CCN(C(=O)c2cc(-c3ccc(F)cc3)[nH]c2C)CC1 | -0.6 | -0.28 |
| O=C(O)C1CC(=O)N(Cc2cccs2)C1 (stereo unspecified) | . | -0.83 |
| O=C(NC1CCCC1)c1cc2c(Cl)nc3ccccc3c2s1 | 0.3 | -1.4 |
| NS(=O)(=O)c1cc(C(=O)OCC(=O)N2CCCC2=O)ccc1Cl | 0.1 | . |
| O=C(COC(=O)CSc1ccc2ccccc2c1)NC1CCCC1 | -1.4 | 0.56 |
| O=c1oc2ccc(Cl)cc2nc1/C=C(\O)c1ccco1 | -0.55 | -0.52 |
| Cn1c(SCc2c(F)cccc2Cl)n[nH]c1=S | . | -0.4 |
| Cc1ccccc1OCCn1c(O)c(N=O)c2ccccc21 | 0.25 | . |
| Cc1n[nH]c(C)c1S(=O)(=O)N1CCC(C(=O)N(C)Cc2cccc(Cl)c2Cl)CC1 | 1 | . |
| Cc1ccccc1N1CCN(C(=O)c2ccccc2O)CC1 | 0 | -0.07 |
| Cc1nn(C)c2ncc(C(=O)O)c(SC(C)C)c12 | . | 0.43 |

Next section, overlapping the part above by 6 compounds.
| mol | AID504770 | Ba CapD inh |
| --- | --- | --- |
| O=c1oc2ccc(Cl)cc2nc1/C=C(\O)c1ccco1 | -0.55 | -0.52 |
| Cn1c(SCc2c(F)cccc2Cl)n[nH]c1=S | . | -0.4 |
| Cc1ccccc1OCCn1c(O)c(N=O)c2ccccc21 | 0.25 | . |
| Cc1n[nH]c(C)c1S(=O)(=O)N1CCC(C(=O)N(C)Cc2cccc(Cl)c2Cl)CC1 | 1 | . |
| Cc1ccccc1N1CCN(C(=O)c2ccccc2O)CC1 | 0 | -0.07 |
| Cc1nn(C)c2ncc(C(=O)O)c(SC(C)C)c12 | . | 0.43 |
| COc1ccccc1N1CCN(CCCCNC(=O)c2ccc(Cl)cc2)CC1 | -0.4 | 0.21 |
| Cc1c(CNCCc2c[nH]c3ccccc23)c(C(=O)O)c(C)n1Cc1ccc(F)cc1Cl | -1.2 | -0.39 |
| CNCCCNc1ccnc2cc(Cl)ccc12 | -0.8 | 37 |
| CC(=O)N1N=C(c2c(-c3ccccc3)c3cc(C)ccc3[nH]c2=O)CC1c1ccco1 (stereo unspecified) | -0.45 | . |
| CCCC(=O)Nc1ccc(Cl)c(NC(=O)c2cccnc2Cl)c1 | 1.9 | . |
| O=C(C(Sc1nnnn1C1CCCC1)c1ccccc1)N1CCOCC1 (stereo unspecified) | -1.1 | . |
| O=C(OCc1nc2ccc(Cl)cc2n1CCO)c1ccccc1 | 0.05 | . |
| O=C(CN1C(=O)/C(=C/c2ccccc2)Sc2ccccc21)N1CCCC1 | 2.4 | -0.7 |
| Cc1ccc(N(C(=O)Cn2nnc(-c3ccc(C)o3)n2)C(C(=O)NCC2CCCO2)c2ccc(F)cc2)cc1 (stereo unspecified) | -0.35 | . |
| CN(C)CCN(C)Cc1ccccc1C(F)(F)F | -0.45 | 0.27 |
| NS(=O)(=O)c1ccc(CCNC(=O)CC2=NS(=O)(=O)c3ccccc3N2)cc1 | -1.1 | 0.94 |
| CC(C)c1ccccc1NC(=O)CN1C(=O)c2ccccc2C1=O | 0.05 | 1.7 |
| O=C1CCCC2=C1C(c1cccs1)C1=C(CCCC1=O)O2 | 0.5 | 0.6 |
| C=CCC1(O)C(=O)N2C(=C1C(=O)N1CCCCC1)c1ccccc1CC2(C)C (stereo unspecified) | . | 5.8 |
| OC(c1ccccc1)c1ccc2c(c1)c1c3n2CCNC3CCC1 (stereo unspecified) | -0.45 | 1.5 |
| COc1cccc(Cn2ccc(O)c(Cc3ccc(Cl)cc3)c2=O)c1 | . | -0.28 |
| COc1cc(CN2CCC(N)CC2)cc(OC)c1OC | 1.1 | . |
| O=C(CN1C(=O)c2cccc3cccc1c23)Nc1ccccc1 | 0.6 | . |
| COC(=O)c1oc2cc(C)ccc2c1C | -0.75 | . |
| Cc1c(C)c(C)c(CSc2nsc(SCc3c(C)c(C)c(C)c(C)c3C)c2C#N)c(C)c1C | . | -0.59 |
| CCOc1ccc(NC(=O)C2CC(=O)N(Cc3ccc4c(c3)OCO4)C(=Nc3ccccc3)S2)cc1 (stereo unspecified) | . | -0.41 |
| Cn1nc(C(=O)NC(c2ccccc2)c2ccccc2)ccc1=O | 0.1 | . |
| CC1CC(C)CN(C(=O)CSc2nc3c(c(=O)[nH]2)CCC3)C1 (stereo unspecified) | 1.2 | -0.04 |
| Cc1ccc(C)c(NC(=S)NC2CC3CCC(C2)N3Cc2ccco2)c1 (stereo unspecified) | -0.7 | . |
| CCCc1[nH]nc2c1C(c1cc(OC)c(OC(C)=O)c(OC)c1)C(C#N)=C(N)O2 (stereo unspecified) | -0.3 | 5.9 |
| CCCNS(=O)(=O)c1ccc2c(c1)n(C)c(=O)c(=O)n2C | -0.65 | -2.2 |
| O=C1c2ccccc2C2(c3ccccc3)NCCN12 (stereo unspecified) | . | -0.035 |
| O=S(=O)(Nc1ccc(F)cc1)c1cccc2cccnc12 | -0.35 | . |
| O=C(CSc1nc2ccc(NC(=O)c3ccccc3C(=O)N3CCCC3)cc2s1)NC1CC1 | . | -0.68 |
| Cc1nn(-c2cccc(C(F)(F)F)c2)c2sc(C(=O)O)cc12 | 0.15 | . |
| COc1ccc(CN2C(=O)c3cccnc3C2=O)cc1S(=O)(=O)N1CCCCC1 | 0.5 | -0.45 |
| O=c1oc(-c2ccc(F)cc2)nc2scc(-c3ccc(Br)cc3)c12 | . | 0.21 |
| Cc1sc2cc(-[n+]3ccc(O)cc3)ccc2[n+]1-c1ccccc1 | 0.9 | -0.6 |
| CCOC(=O)C1=C(CSc2nc(N)c(C#N)c(-c3ccc(F)cc3)c2C#N)OC(N)=C(C#N)C1c1ccccc1Cl (stereo unspecified) | . | 2.1 |
| Cc1ccc(S(=O)(=O)Nc2cc(C(F)(F)F)ccc2Oc2ccc(C)c3c2CCC3)cc1 | . | 0.24 |
| N#Cc1ccc(Oc2nc(-c3ccccc3)nnc2-c2ccccc2)cc1 | . | -0.56 |
| Fc1ccc(CN2CCN3CCCC3C2C2CCCCC2)cc1F (stereo unspecified) | 0.5 | 0.19 |
| Cn1c(O)c(C=NC23CC4CC(CC(C4)C2)C3)c(=O)n(C)c1=O | -0.5 | -0.16 |
| COc1ccc(S(=O)(=O)Nc2ccc3[nH]ncc3c2)cc1Br | 0.05 | . |
| O=C(NCCCN1CCCC1=O)c1ccc2c(c1)[nH]c(=S)n1c3ccccc3nc21 | . | -0.085 |
| CC1=C(C(=O)Nc2ccccc2)C(c2ccc3c(c2)OCO3)n2ncnc2N1 (stereo unspecified) | . | -1.4 |
